# Compound activity deposited in PubChem by National Center for Advancing Translational Sciences (NCATS).
# Rango-impB inh: Rango-importin beta binding inhibition; Rango CFP/YFP FRET sensor + importin beta, 45 min; Potency, µM (titrated, usually from 92.2 µM), inactives show top-dose inhibition of complex formation; hit rate 0.031% among 340,000; AID 540263; active = rising FRET ratio curve, often small or poorly fitted; inconclusive = mostly compound fluorescence or quenching in the first reads; inactive = flat curves in all reads;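 further: potency means the concentration at half of the fitted maximal effect; 0% = DMSO wells and 100% = buffer wells lacking importin beta; nearly all actives have a fitted effect of over 15% in size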
#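 FRET biosensor (snurportin 1 IBB flanked by EYFP and cerulean), 50 nM, with compound 5 min, then 0.125 microM importin beta in PBS, 1 mM DTT, 0.02% Tween-20, 0.1% BSA. CFP/YFP ratio read after 45 min at room temperature; pre-read flags interference.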
# miR-21 reporter: raises the signal of a miR-21 reporter; Potency, µM (doses to about 38.3 µM), inactives show at the highest dose reporter change, positive = more light; HeLa miR-21 FLuc reporter, luciferase, 48 h; 340,000 tested, under 10 active; AID 2288; active = well fitted rising curve with a large enough effect; inconclusive = small, poorly fitted or top-dose-only effect; inactive = no such curve, though single readings can be large or run the other way;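 further: % of control where 0% means no effect; miR-21 action dims this reporter so a rising signal means less miR-21 action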
#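 HeLa cells stably expressing CMV-driven firefly luciferase with a downstream miR-21 binding sequence, endogenously expressing miR-21, were treated with titrations (up to about 40uM final) for 48 hours at 37 degree Celsius. Luciferase luminescence was read after lysis.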
# Rango dissoc inh: inhibition of RanGTP-driven Rango-importin beta dissociation. Potency, µM (titrated, usually from 46.1 µM), without a hit: top-dose activity change, negative = inhibition. Biochemical FRET Rango-importin beta, RanGTP-induced dissociation. hit rate 0.071% among 340,000. O95149+P62826. AID 540253; active means falling FRET ratio curve, often poorly fitted, with flat reads before Ran was added; inconclusive means other falling curves, or compound fluorescence or quenching; inactive means flat or rising ratio curve;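 further: potency means the concentration at half of the fitted maximal effect; % of control where 0% means no effect; nearly all actives have a fitted effect of over 45% in size; -100% = wells without RanGTP and RCC1; the record marks most hits as doubtful in a second field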
#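 Quantitative HTS using a FRET biosensor: 0.1 uM Rango, 0.25 uM importin beta, 0.6 uM Ran, 2 mM GTP, 0.2 uM RCC1 final, PBS with DTT, Tween-20 and BSA. Post-read taken 45 min after Ran addition.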
# GLA inh pH 4.5: alpha-galactosidase A (human) inhibition, pH 4.5; activity change, negative = inhibition, % at 105 µM; 230,000 tested, under 10 active; P06280; purified enzyme, 4-MU-alpha-Gal fluorescence, pH 4.5; AID 1467; inconclusive = small, poorly fitted or top-dose-only inhibition, or a rising curve; inactive = flat fitted curve, though single readings scatter; no compound was filed as active;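 further: 0% = full activity with enzyme and -100% = basal without enzyme; dose as in the result columns while the protocol names 77 µM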
# Target sequence (P06280 whole entry, looked up): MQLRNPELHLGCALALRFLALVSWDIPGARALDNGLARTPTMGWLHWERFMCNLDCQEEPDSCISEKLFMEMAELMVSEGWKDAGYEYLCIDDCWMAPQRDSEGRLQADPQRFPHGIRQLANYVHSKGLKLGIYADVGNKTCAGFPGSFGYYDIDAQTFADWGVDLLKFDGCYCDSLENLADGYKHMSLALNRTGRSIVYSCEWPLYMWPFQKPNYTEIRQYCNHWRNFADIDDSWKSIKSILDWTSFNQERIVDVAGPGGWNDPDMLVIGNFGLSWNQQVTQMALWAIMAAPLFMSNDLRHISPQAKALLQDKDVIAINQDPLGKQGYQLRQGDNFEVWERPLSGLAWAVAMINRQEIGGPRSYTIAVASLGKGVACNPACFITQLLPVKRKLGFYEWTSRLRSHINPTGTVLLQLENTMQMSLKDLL
# Numbers without * were called inactive; ? = inconclusive; . = no result given; & = joins results of further samples.
compound,Rango-impB inh,miR-21 reporter,Rango dissoc inh,GLA inh pH 4.5
CCOc1ccccc1CN1CCNC(=O)C1CC(=O)NC1CCCCCCC1 (stereo not given),0.1%,.,-6%,.
O=C(Oc1ccc(Cl)c2cccnc12)c1ccco1,-1.5%,24%,1%,-4
CCC(C)C(NC(=O)C1CCC(C)CC1)C(=O)NCc1ccco1 (stereo not given),5.2%,1%,4%,.
CCCCOC(=O)c1ccc(S(N)(=O)=O)o1,-2.1%,-31%,-7%,9
CC(NC(=O)CN1CCOCC1)c1ccccc1 (stereo not given),1.2%,-11%,20%,.
Cc1ccc(OS(=O)(=O)c2cn(C)c(=O)n(C)c2=O)cc1C,-0.7%,-6%,27%,8
Cc1ccc(C)c(NC(=O)COC(=O)c2cc(=O)c3ccccc3o2)c1,-3.1%,.,-15%,.
CCSc1nnc(NC(=O)c2ccccc2)s1,0.4%,-63%,17%,-10
O=C(Cc1coc2cc3c(cc12)CCC3)NC1CCCCCCC1,1.6%,-17%,-3%,1
CCN1C(=O)c2ccccc2Sc2ccc(C(=O)NCCCN(CC(C)C)CC(C)C)cc21,-6.3%,1%&15%,20%,.
COc1cc(SC)ccc1C(=O)N1CCc2ccccc21,-0.1%,3%,-10%,.
CC1CN(S(=O)(=O)c2cccc(C(=O)Nc3ccccc3N3CCOCC3)c2)CC(C)O1 (stereo not given),-2.0%,.,-2%,.
Cc1nnc(SCC(=O)Nc2nccs2)n1N,-1.7%,.,-14%,.
COc1ccc(S(=O)(=O)N2CCOC23CCN(S(=O)(=O)c2ccc([N+](=O)[O-])cc2)CC3)cc1,-4.8%,.,11%,.
O=C(C[n+]1cc(-c2ccc(Cl)cc2)n2c1CCCCC2)c1ccccc1,5.9%,14%,1%,-2
CC(=O)Nc1cccc(NC(=S)Nc2ccc(F)c(Cl)c2)c1,-0.9%,-7%,-4%,0
N#Cc1ccc(CN2CCN(CC(=O)NCCc3ccc(Cl)cc3Cl)CC2)cc1,-1.7%,11%,-2%,.
Cc1ccc(CN(C)C(=O)C2CCN(C(=O)Nc3ccccc3)CC2)o1,0.7%,.,0%,.
COc1cccc(N2CCN(C(=O)CCS(=O)(=O)c3ccc4c(c3)oc(=O)n4C)CC2)c1,3.2%,-5%&-1%,10%,.
COc1ccccc1C(=O)OCCCN=C1NS(=O)(=O)c2ccccc21,0.4%,-2%,0%,2
Cc1cc(C)cc(NC(=O)CSc2cc(C(=O)c3nccn3C)c3ccccc3n2)c1,0.1%,1%,-8%,-1
O=c1[nH]c2ccccc2cc1-c1nnn(-c2ccccc2)n1,-1.4%,.,11%,.
O=[N+]([O-])c1ccccc1/C=N/N1CCN(c2ccccn2)CC1,5.6%,-42%,2%,1
O=C(COC(=O)c1ccc(-c2ccc([N+](=O)[O-])cc2)o1)NC(=O)NC12CC3CC(CC(C3)C1)C2,2.3%,-12%,-3%,-4
CCN(CC(=O)NC(C)C)C(=O)[C@@H](NC(=O)c1ccco1)C(C)C,2.0%,1%,13%,3

# Next structures.
compound,Rango-impB inh,miR-21 reporter,Rango dissoc inh,GLA inh pH 4.5
COc1cc(C(=O)Nc2ccc(NC(=O)C3CCCCC3)nc2)cc(OC)c1OC,1.0%,1%,-17%,.
O=C(CNC(=O)c1ccc2ccccc2c1)NCc1ccccc1F,-1.7%,3%,-1%,.
Cc1ccc(/C=C/C(=O)Nc2ccncc2)o1,0.7%,-12%,-11%,0
Clc1cccc(Cl)c1CSc1nnc(/C=C/c2ccccc2)o1,3.8%,-19%,14%,-8
COCCCn1c(SCC(=O)Nc2ccc(C(C)=O)cc2)nc2ccccc2c1=O,3.9%,-38%,1%,-4
Cc1ccc(NC(=O)CCNC(=O)c2ccc(Cl)cc2)cc1C,-0.5%,-15%,-14%,.
CCO/C=N/c1c(C#N)c(CC#N)nn1-c1ccccc1,-2.7%,-9%,19%,2
O=c1[nH]c(=O)n(C2CCCCCC2)c(O)c1C=NCc1ccc(F)cc1,4.8%,0%,-7%,-3
CC1=C(C(=O)Nc2ccccc2)C(c2cccs2)NC(=O)N1 (stereo not given),-1.4%,0%,-5%,-1
CCCCC(=O)Nc1cc(NC(=O)CC)ccc1Cl,-2.8%,-2%,8%,-2
COc1ccccc1CNC(=O)CCCc1ccccc1,-4.6%,-42%,-15%,3
CN(C)S(=O)(=O)c1ccc(Cl)c(NC(=O)COC(=O)CNC(=O)c2ccco2)c1,-0.8%,0%,-5%,1
Cc1cc(C)n(S(=O)(=O)c2ccc(F)cc2)n1,-2.4%,0%,6%,.
COC(=O)c1ccc(-c2sc3nc(N4CCOCC4)c4c(c3c2N)CCCC4)o1,?,-11%,?,3
COc1ccc2oc(=N)c(C(=O)Nc3ccc(Cl)cc3)cc2c1,1.6%,-8%,-7%,.
O=C(CSc1ccc(-c2ccncc2)nn1)N1CCN(c2ccccc2)CC1,1.5%,-1%,-3%,1
O=C1Nc2ccc(Cl)cc2C12OCCCO2,-2.3%,0%,-1%,.
CCOc1cc(N2CCOCC2)c(OCC)cc1NC1=NCCCCC1,1.1%,-6%,0%,7
Cc1c(C(=O)OCc2ccccc2)nnn1-c1nonc1N,1.5%,-8%,10%,-4
CCOc1ccc(NC(=O)C(Cc2ccccc2)NC(=O)C2CCCCC2)cc1 (stereo not given),-5.0%,-8%,-12%,1
O=C(Nc1ccc([N+](=O)[O-])cn1)c1ccc2c(c1)OCO2,5.8%,-38%,-4%,5
Cc1cccc(CN2CCCC(C(=O)N3CCCCC3)C2)c1 (stereo not given),-2.0%,-5%,-7%,.
COc1ccccc1NS(=O)(=O)c1ccc(C(=O)N2CCN(c3ccccc3)CC2)cc1,-1.6%,.,6%,.
Cc1cccc(NC(=O)COC(=O)C2COc3ccccc3O2)c1C (stereo not given),?,.,?,.
COCCCN1C(=O)C(=O)/C(=C(/O)c2ccc(S(=O)(=O)N3CCCCC3)cc2)C1c1ccc(O)cc1 (stereo not given),-0.6%,-2%,1%,.

# 2 of these compounds, reformatted:
# Values in the order – Rango-impB inh, miR-21 reporter, Rango dissoc inh, GLA inh pH 4.5
- O=C(CNC(=O)c1ccc2ccccc2c1)NCc1ccccc1F
  -1.7%, 3%, -1%, .
- Cc1ccc(/C=C/C(=O)Nc2ccncc2)o1
  0.7%, -12%, -11%, 0

# Continuation:
compound,Rango-impB inh,miR-21 reporter,Rango dissoc inh,GLA inh pH 4.5
Cc1ccc(NC(=O)COC(=O)CCc2c(C)nc3ncnn3c2C)cc1,1.4%,.,10%,.
O=C1CC(c2ccccc2)CC(O)=C1C=NC1CCCCC1 (stereo not given),-1.5%,-13%,12%,3
COc1ccc(OC)c(N(CC(=O)Nc2cccnc2)S(=O)(=O)c2ccc(C)cc2)c1,4.9%,19%,-1%,1
CCCn1c(N)c(N(CCOC)C(=O)C(C)Oc2ccc(F)cc2)c(=O)[nH]c1=O (stereo not given),0.0%,.,21%,.
Cc1ccc(C(=O)NCCNC(=O)COc2ccc(C)c(C)c2)cn1,1.8%,0%,0%,.
Cc1ccc(C(=O)N(CCc2ccccc2)Cc2ccccc2)cc1S(=O)(=O)N1CCOCC1,-0.1%,.,27%,.
COc1ccc(NC(=O)c2cc(-c3cccnc3)nc3c(C)c(C)ccc23)c(OC)c1,0.1%,5%,-14%,3
COCC(=O)NC(C)c1nc2ccccc2[nH]1 (stereo not given),-2.2%,-6%,9%,4
C/C(=N\NC(=O)CNc1cccc(C(F)(F)F)c1)c1cccc(Br)c1,1.9%,-6%,1%,-4
Cc1sc2nc(C3CCCCC3)nc(SCC(=O)N3CC(=O)Nc4ccccc43)c2c1C,-0.9%,-2%,-9%,-17
NC(=O)c1ccc(C(F)(F)F)n(Cc2c(Cl)cccc2Cl)c1=O,-0.8%,-8%,2%,-2
O=C(CCN1C(=O)C2C3CCC(C3)C2C1=O)Nc1ccc(F)cc1 (stereo not given),9.4%,-2%,30%,.
O=C(COC(=O)c1cccnc1Cl)Nc1nc(-c2ccccc2)cs1,-0.6%,-43%,-3%,6
COc1ccc(/C=N/NC(=O)COc2ccc3ccccc3c2)c(C(=O)O)c1OC,-12%,0%,-22%,-2
CCOc1ccc(C(=O)N/N=C/c2cc(Cl)ccc2[N+](=O)[O-])cc1,-0.4%,-3%,9%,3
CC(/C=N/NC(=O)c1cc(C(C)(C)C)[nH]n1)=C\c1ccccc1,-0.5%,8%,-5%,4
Cc1ccc2cc(C(c3nnnn3C3CCCC3)N(Cc3ccco3)Cc3cccs3)c(=O)[nH]c2c1 (stereo not given),-0.4%,15%,-8%,-4
COC(=O)CN1C(=O)[C@H]2[C@@H](c3ccc(C)o3)N3C(=O)CN(Cc4ccccn4)C(=O)[C@@]3(Cc3ccccc3)[C@H]2C1=O,-1.9%,-2%,12%,.
Nc1nnc(/C=C/c2cccc([N+](=O)[O-])c2)s1,-0.9%,-36%,42%,.
CNS(=O)(=O)Cc1ccc2[nH]cc(CCN(C)C)c2c1,0.6%&-2.4%,-1%,-13%&20%,-2
Cc1ccccc1N/C(=N/S(=O)(=O)c1ccccc1)c1ccc(F)cc1,2.9%,-2%,15%,-4
COCC1CCN(Cc2nc(COc3ccccc3)no2)C1 (stereo not given),2.7%,-19%,-13%,3
CCn1c(SCC(=O)NCC2CCCO2)nnc1-c1ccccc1 (stereo not given),0.2%,-3%,13%,-2
COc1ccc(CCNC(=O)C(C)OC(=O)c2ccco2)cc1OC (stereo not given),-4.7%,0%,27%,4
Cc1ccc(C)c(N2CCN(C3CCCC(C)C3)CC2)c1 (stereo not given),0.5%,5%,4%,.

# 5 structures already listed, ordered by length of the SMILES, ascending.
compound,Rango-impB inh,miR-21 reporter,Rango dissoc inh,GLA inh pH 4.5
COCC(=O)NC(C)c1nc2ccccc2[nH]1 (stereo not given),-2.2%,-6%,9%,4
CNS(=O)(=O)Cc1ccc2[nH]cc(CCN(C)C)c2c1,0.6%&-2.4%,-1%,-13%&20%,-2
O=C(COC(=O)c1cccnc1Cl)Nc1nc(-c2ccccc2)cs1,-0.6%,-43%,-3%,6
Cc1ccc(NC(=O)COC(=O)CCc2c(C)nc3ncnn3c2C)cc1,1.4%,.,10%,.
C/C(=N\NC(=O)CNc1cccc(C(F)(F)F)c1)c1cccc(Br)c1,1.9%,-6%,1%,-4

# Further results follow:
compound,Rango-impB inh,miR-21 reporter,Rango dissoc inh,GLA inh pH 4.5
COc1ccc(CSc2nnnn2-c2ccc(C(N)=O)cc2)cc1[N+](=O)[O-],3.4%,-1%,-11%,.
Cc1cc(=O)oc(C)c1C(=O)Nc1cccc2ccccc12,?,-7%,-16%,11
Cc1ccc(S(=O)(=O)N2CCN(C(=O)COC(=O)CCc3ccccc3)CC2)c(C)c1,-2.3%,.,-1%,.
COc1ccc(C(=O)NCc2nnc(SCC(=O)N3CCCc4ccccc43)o2)cc1OC,-4.0%,-11%,-6%,0
COc1ccc(/C=N/NC(=O)c2cccc([N+](=O)[O-])c2)cc1O,-1.0%,3%,4%,1
CN(C)c1ccc(N=Cc2cccn2C)cc1,-0.2%,-7%,0%,.
Cc1ccc(C)c(S(=O)(=O)N2CCNCC2)c1,3.7%,-2%,-1%,6
Cc1cc(=O)[nH]c(N/N=C/c2cc(C)n(CC(F)(F)F)c2C)n1,10%,13%,3%,0
CCc1ccc(S(=O)(=O)NCc2cn3ccsc3n2)s1,-5.1%,-2%,?,-9
CC(=O)c1ccc(NC(=O)Nc2ccccc2)cc1,-1.3%,-8%,-2%,0

# Reprinted at random: three compounds from above
compound,Rango-impB inh,miR-21 reporter,Rango dissoc inh,GLA inh pH 4.5
CCOc1ccc(C(=O)N/N=C/c2cc(Cl)ccc2[N+](=O)[O-])cc1,-0.4%,-3%,9%,3
Cc1ccccc1N/C(=N/S(=O)(=O)c1ccccc1)c1ccc(F)cc1,2.9%,-2%,15%,-4
O=C(Cc1coc2cc3c(cc12)CCC3)NC1CCCCCCC1,1.6%,-17%,-3%,1

# The list is partial; rates above refer to the full screens.
